Screening data (PubChem)
gsp antagonist: gsp mutant antagonism; gsp-mutant cells, cAMP HTRF, 30 min; control for the full effect not named in the record; Potency, µM (titrated, usually from 76.9 µM), inactives show at the highest dose activity change, negative = inhibition, usual class: inhibitors; hit rate 0.4% among 340,000; active = falling curve of any shape with a large fitted effect; inconclusive = falling curve, mostly with a smaller effect; inactive = flat or rising curve; cell line not stated here;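 further: intracellular cAMP measured with PDE inhibitor Ro 20-1724 present during compound exposure; potency means the concentration at half of the fitted maximal effect; on the % scale 0 is the no-effect control and ±100 the full control effect; nearly all actives have a fitted effect of over 65% in size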
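HTRF cAMP read-out (cAMP-d2 plus anti-cAMP antibody-K in lysis buffer, 30 min RT). Before lysis, cells are exposed to compounds with […] for 30 min at 37C in DPBS containing Ca/Mg, BSA and Tween 20.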
ClpP mod: qHTS Assay for Activators of ClpP. purified B. subtilis ClpP, FRET peptide cleavage, 20 min. Potency, µM (highest dose often 57.5 µM), for the others: at the top dose activity change, negative = active. hit rate 1.9% among 340,000. AID 651965, 2013; active = well fitted falling curve with a large enough effect; inconclusive = small, poorly fitted or top-dose-only effect; inactive = no such curve, though single readings can be large or run the other way; further: potency means the concentration at half of the fitted maximal effect; the source files actives as falling curves though it sought activators and does not explain the sign; nearly all actives have a fitted effect of over 65% in size; many hits overshoot -100%
Target sequence (P80244 whole entry, looked up): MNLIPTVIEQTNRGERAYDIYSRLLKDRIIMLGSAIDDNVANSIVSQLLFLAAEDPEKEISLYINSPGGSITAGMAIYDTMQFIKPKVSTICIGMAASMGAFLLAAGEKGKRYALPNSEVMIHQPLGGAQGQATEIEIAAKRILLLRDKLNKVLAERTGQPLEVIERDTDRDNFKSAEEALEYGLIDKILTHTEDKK
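Purified B. subtilis ClpP, 10 microg/mL final in Tris/HCl pH8 with KCl, BSA, glycerol and Tween-20, cleaved an Abz/nitrotyrosine-quenched decapeptide. Fluorescence (ex 320, em 430) was read at 0 and 20 min at room temperature. Delta was normalized to 5.8 microM ADEP and DMSO/no-enzyme controls.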
TRPML1 agonist: agonists of human TRPML1 channel. Q9GZU1. TRPML1-expressing cells, Ca2+ dye fluorescence, FDSS; host cell line not named in the record; reference of the full effect not given here. activation, % (no concentration beside the values). hit rate 0.12% among 410,000. AID 624414; in the data active = activation above about 50%; inconclusive = about 30% to 50%; inactive = below about 30%; further: 0% is about no effect; the text of the record puts the active cut at 80%
Target sequence (Q9GZU1 whole entry, looked up): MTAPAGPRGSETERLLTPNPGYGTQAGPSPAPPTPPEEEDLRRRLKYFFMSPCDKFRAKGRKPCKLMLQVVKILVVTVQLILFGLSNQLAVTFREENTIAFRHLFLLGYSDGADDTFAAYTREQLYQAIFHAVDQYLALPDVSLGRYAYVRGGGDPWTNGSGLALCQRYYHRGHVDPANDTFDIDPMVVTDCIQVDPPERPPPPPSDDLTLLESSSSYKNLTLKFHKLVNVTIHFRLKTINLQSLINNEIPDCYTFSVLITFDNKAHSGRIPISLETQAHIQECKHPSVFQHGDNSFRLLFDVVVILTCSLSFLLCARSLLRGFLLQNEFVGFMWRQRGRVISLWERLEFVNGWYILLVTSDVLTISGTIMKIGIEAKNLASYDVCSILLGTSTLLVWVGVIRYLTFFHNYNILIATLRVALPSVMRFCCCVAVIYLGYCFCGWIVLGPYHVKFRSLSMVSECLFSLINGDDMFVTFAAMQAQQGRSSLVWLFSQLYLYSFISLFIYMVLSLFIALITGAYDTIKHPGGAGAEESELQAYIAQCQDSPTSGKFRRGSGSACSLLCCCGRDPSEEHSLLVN
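In this qHTS format, compounds were pin-transferred onto Ca8-dye-loaded TRPML1-DL cells induced with Tet overnight, and intracellular Ca2+ fluorescence was recorded kinetically for 110 s after a 10 s baseline. A subsequent 4uM final 54-4 (EC80) addition followed by a second 110 s read served as the antagonist phase.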
TRPML1 blocker: blocks the human TRPML1 channel. Q9GZU1. TRPML1-inducible cells, Ca2+ dye fluorescence, FDSS; hits give low values; inhibition of EC80 agonist-evoked calcium signal. activity change, negative = inhibition, % (test concentration not listed). hit rate 0.02% among 390,000; in the data active means activity change below about -50%; inconclusive means about -30% to -50%; inactive means above about -30%;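 further: stimulus is agonist 54-4 at its EC80 concentration; on the % scale 0 is the no-effect control and ±100 the full control effect; compound concentration not given in the record; the text of the record puts the active cut at -80%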
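Tet-induced TRPML1-DL cells loaded with Ca8 no-wash calcium dye were read kinetically on FDSS. Compound addition was followed by EC80 agonist 54-4 (4 uM final); inhibition was read over 110 s.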
gsp ag: activates gsp, the McCune-Albright syndrome mutation; gsp mutant cells, cAMP HTRF, 30 min; control for the full effect not named in the record; Potency, µM (titrated, usually from 76.9 µM), for the others: top-dose activation (cAMP increase), actives largely listed as activators; hit rate 0.13% among 340,000; AID 624287; active = well fitted activation curve with a large enough effect; inconclusive = small, poorly fitted or top-dose-only effect, or another doubt; inactive = no such curve, though single readings can be large or run the other way; cell line not stated here;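 further: phosphodiesterase inhibitor Ro 20-1724 added with compounds to block cAMP breakdown; potency means the concentration at half of the fitted maximal effect; nearly all actives have a fitted effect of over 60% in size; about a fifth of the inactives were tested at one dose only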
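Cells stably selected in G418 were plated at 2000/well, grown 16-24 hr, then given compounds in DMSO with the PDE inhibitor […] (300 uM solution added) for 30 min at 37C; cAMP was read by HTRF.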
Menin MLL FP FL: inhibitors of human menin-MLL interaction, wild-type MLL peptide. Fluorescence polarization, fluorescein-MLL peptide displacement from menin. FP activity change, % at 61.4 µM. 290,000 tested, under 10 active. AID 1766; inconclusive = falling polarisation curve, or a change in total fluorescence; inactive = total fluorescence flat and polarisation flat or rising; no compound was filed as active; the % refers to the polarisation; negative = inhibition;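 further: % of control where 0% means no effect; inhibitors lower the polarisation; unlabelled MLL peptide was the positive control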
Active calls of the source: *; ? = inconclusive; nt = no result given; [ ] = dose if it differs, or a comment.

SMILES	gsp antagonist	ClpP mod	TRPML1 agonist	TRPML1 blocker	gsp ag	Menin MLL FP FL
CC(=O)Nc1ccc(NC2=Nc3ccccc3N3C2=Nc2c(c(C)nn2-c2ccccc2)C3c2ccccc2)cc1 (stereo not drawn)	5%	0.7%	-0.4	-6	?	?
CCc1cc2c(=O)c(-c3nc4ccccc4n3C)coc2c(CN2CCOCC2)c1O	1%	nt	-0.1	8	20%[15.4 µM]	0.2
Cc1ccc(OCCn2c(-c3ccc(Cl)cc3)nc3ccccc3c2=O)c(C)c1	nt	1.4%	-0.3	12	nt	nt
COC(=O)c1c(C)cc(C)c2c1CC(C)(C)C2=O	-8%	1.5%	-0.1	4	-6%[15.4 µM]	4.1
COc1ccc2oc(=O)c(-c3nnc(N)s3)cc2c1	-10%	nt	4.5	40	3%[15.4 µM]	-1.0
Cc1c(NC(=O)C2CCCNC2=O)c(=O)n(-c2ccccc2)n1C (stereo not drawn)	10%	-0.6%	1.1	-15	-18%	-0.5
O=C(N=NC(=O)c1ccc2c(O)n(CC3CCCO3)c(O)c2c1)c1cccnc1 (stereo not drawn)	6%	0.1%	1.8	1	-3%	1.2
COc1cc(C(=O)OC(C)CN2C(C)CCCC2C)cc(OC)c1OC (stereo not drawn)	4%	-7.4%	-1.1	11	-5%[15.4 µM]	-0.4
CCN1CCCC1CNC(=O)C(=O)NC(C)c1ccccc1 (stereo not drawn)	7%	-2.3%	0.0	21	?	-1.7
COc1ccc(Cn2nnnc2CN2CCOCC2)cc1	12%	-1.8%	0.5	2	-9%	0.0
COc1ccc(P(=O)(COc2ccc([N+](=O)[O-])cc2)c2ccc(OC)cc2)cc1	-10%	0.3%	0.4	4	5%	nt
CN1C(=O)NC(c2ccccc2Cl)C2=C1CC(C)(C)CC2=O (stereo not drawn)	7%	nt	-0.5	-4	12%	4.6
CCOc1ccc(NC(=O)c2cnn(-c3ccc(C)c(C)c3)c2C2CCN(C(=O)OC(C)(C)C)CC2)cc1	nt	0.5%	-0.9	-18	nt	nt
CC(C)(C)NC(=O)Nc1ccc(F)c(Cl)c1	-4%	nt	0.3	-9	11%[15.4 µM]	-0.2
O=C(c1ccccc1)c1ccc(OCCCN2CCCCC2)cc1	7%	-0.8%	0.3	5	-57%[inhibitor]	0.9
CC(C)Oc1cccc(C(=O)C2CCCN(Cc3ccc(Oc4ncccn4)cc3)C2)c1 (stereo not drawn)	3%	nt	1.0	-2	16%[15.4 µM]	-2.4
COc1cccc(/C=C2\SC(=S)N(CCC(=O)Nc3ccc(O)cc3)C2=O)c1	-6%	-1.5%	0.3	-1	12%	2.8
Cc1ccc(Sc2ncccc2C(N)=O)cc1	-7%	nt	0.7	5	-15%[15.4 µM]	nt
O=C(c1ccc2c(c1)N(Cc1cccc(Cl)c1)C(=O)c1ccccc1S2(=O)=O)N1CCCCCC1	nt	-0.2%	0.3	-7	nt	nt
COCCCn1c(=O)c2ccccc2n(CC(=O)NC2CCCCC2)c1=O	7%	nt	1.5	29	-7%[15.4 µM]	2.7
COc1ccc(C(C#N)N2N=C(C)CC2c2ccccc2)cc1OC (stereo not drawn)	-8%	-7.9%	1.0	-15	32%	3.2
Cc1cc(O)c(Sc2ccccc2)c(=O)o1	6%	nt	-0.9	-10	?	nt
COc1cccc(NC(=O)c2cccc(Cl)c2)c1	-8%	1.5%	0.7	12	nt	nt
CC1CCCCC12NC(=O)N(CC(=O)NCc1ccccc1)C2=O (stereo not drawn)	7%	-1.8%	-0.1	-1	4%[15.4 µM]	nt
Cc1ccc(NC(=O)CCc2nnc3ccc(N4CCN(C)CC4)nn23)cc1F	6%	-1.8%	-1.3	-13	?	1.8
Cc1cccc(NC(=O)c2ccccn2)c1C	7%	0.1%	-0.9	-11	1%	4.0
C#CC1(O)CC(C)NCC1(C)CCC#N (stereo not drawn)	1%	-0.8%	-0.3	8	-12%	1.5
COCCNC(=O)CCCn1c(=O)c2cc(OC)c(OC)cc2n(CC(=O)c2ccccc2)c1=O	-15%	nt	-0.4	24	?	-0.7
COc1ccccc1CNC(=O)c1cc(C(C)C)nc2ccccc12	-12%	nt	2.7	39	-3%	-5.9
COc1ccc(C2=Nc3ccccc3NC(c3cccs3)=N2)cc1	nt	-3.8%	1.1	9	nt	nt

The last three compounds of the section before are carried over, then new ones follow.
SMILES	gsp antagonist	ClpP mod	TRPML1 agonist	TRPML1 blocker	gsp ag	Menin MLL FP FL
COCCNC(=O)CCCn1c(=O)c2cc(OC)c(OC)cc2n(CC(=O)c2ccccc2)c1=O	-15%	nt	-0.4	24	?	-0.7
COc1ccccc1CNC(=O)c1cc(C(C)C)nc2ccccc12	-12%	nt	2.7	39	-3%	-5.9
COc1ccc(C2=Nc3ccccc3NC(c3cccs3)=N2)cc1	nt	-3.8%	1.1	9	nt	nt
Cc1[nH]c2ccccc2c1-c1csc(NC(=O)CSCC(=O)O)n1	-5%	3.4%	-0.7	-1	-20%	7.3
COc1ccc(-c2nc3cc(C)c(Br)c(C)n3c2CC(C)(C)C)cc1OC	nt	1.7%	?	-2	nt	nt
CCN(CC(=O)NCc1cccs1)C(=O)c1cccc(S(=O)(=O)Nc2ccc(OC)cc2)c1	-7%	-3.7%	0.9	-6	-8%	nt
Cc1ccc(-n2c(SCc3ccc(C#N)cc3)nnc2-c2ccccn2)cc1	1%	-0.2%	0.6	43	6%	2.5
CCOc1ccc(CNC(=O)Cn2nc(N3CCN(c4ccccc4)CC3)ccc2=O)cc1	nt	0.8%	2.0	-28	nt	nt
COc1ccc2nc(NC(=O)Cn3cnc4ccccc4c3=O)sc2c1	10%	-6.0%	-0.5	-2	?	4.9
Cc1cccc(-c2nc3cc(NC(=O)C4CCCO4)ccc3o2)c1 (stereo not drawn)	-8%	?	0.7	23	?	nt
O=C(c1ccccc1)N1N=C(c2ccccc2O)CC1c1ccccc1 (stereo not drawn)	?	-2.6%	-1.1	-1	-2%[15.4 µM]	3.0
O=C(NCCN1CCOCC1)c1sc2cc(Cl)ccc2c1Cl	7%	0.1%	-0.6	11	-1%[15.4 µM]	-0.4
CC(C)(C)OC(=O)N1CCC(c2c(C(=O)NC3CC3)cnn2-c2ccc(Cl)cc2)CC1	-3%	-1.8%	0.3	3	?	2.3
CCN1C(C)=C(C)S/C1=C1\SC(=S)N(C2CCCCC2)C1=O	-21%	0.8%	0.3	42	-46%[inhibitor]	17
CCN(CC)C(=O)c1sc(NC(=O)c2cccc([N+](=O)[O-])c2)c(C#N)c1C	-10%	1.8%	0.8	15	?	8.4
C#CCOCCOCCOCCNc1nc(N2CCN(C(=O)Cn3cc(CCO)nn3)CC2)nc(N2CCN(C(=O)Cn3cc(CC(C)O)nn3)CC2)n1 (stereo not drawn)	14%	1.7%	-0.8	-23	14%	nt
CCCCOn1c(C)c(C(=O)OCC)c2c3no[n+]([O-])c3ccc21	-2%	0.3%	1.2	32	10%	1.1
COc1ccc(-n2ccn(CC(=O)Nc3ccc(C)cc3C)c(=O)c2=O)cc1	nt	-13%	0.8	7	nt	nt
O=C(CCNS(=O)(=O)c1ccc(Cl)cc1)N1CCCC1	5%	-4.5%	-0.3	-4	-13%	nt
COc1cccc(COC(=O)C(Cc2ccccc2)NC(=O)c2ccco2)c1 (stereo not drawn)	nt	-0.2%	0.2	3	16%	nt
O=C1CCCN1c1ccc(S(=O)(=O)NCCOc2ccccc2)cc1	?	-4.7%	-0.3	15	-13%	2.4
CCn1ncc(Br)c1C(=O)Nc1cc(C)ccc1F	0%	-4.6%	0.0	10	-7%	-0.9
COc1ccc(-c2noc(N3CCC(C(=O)Nc4ccccc4F)CC3)n2)cc1	3%	-0.1%	-0.3	46	-1%	0.4
O=C(Nc1ccc2c(c1)OCCO2)c1cc(-c2ccccn2)nc2ccc(Br)cc12	17%	nt	-0.7	61	14%[15.4 µM]	0.4
CC(=O)c1sc(NC(=O)CN2C(=O)C3CC=CCC3C2=O)nc1-c1ccccc1 (stereo not drawn)	9%	0.5%	-0.2	-6	30%	nt
COc1ccc2nc(SCC(=O)NC3CCCCC3)[nH]c2c1	-3%	nt	0.0	-1	-21%	0.0
CC(=O)N1CCN(c2ccccc2NC(=O)c2ccc(C#N)cc2F)CC1	-16%	-1.1%	-0.2	7	5%[15.4 µM]	1.7
CCOc1ccccc1N1CCN(C(=O)COc2ccc3c(C)cc(=O)oc3c2)CC1	-16%	nt	0.9	-11	14%	3.9
COc1ccccc1NC(=O)CN(C)S(=O)(=O)c1ccc2c(c1)CCC(=O)N2	-1%	1.9%	-0.8	2	?	1.0
Cc1c(NC(=O)CCc2ccc(S(=O)(=O)N3CCOCC3)cc2)c(=O)n(-c2ccccc2)n1C	10%	nt	0.1	45	7%[15.4 µM]	nt
CC(C)Nc1oc(-c2cccc3ccccc23)nc1C#N	-1%	47%	1.4	39	18%	1.0
COc1ccc(S(=O)(=O)N2CCN(C(=O)CN3C(=O)NC(C)(c4ccc5ccccc5c4)C3=O)CC2)cc1 (stereo not drawn)	-22%	0.3%	-0.4	4	-13%	nt
CCOC(=O)c1ccccc1NC(=O)c1ccccc1N(C)S(C)(=O)=O	-4%	0.5%	-1.8	-9	20%	-2.3
CN(C)CCCNS(=O)(=O)c1cc(Cl)ccc1Cl	-6%	-0.3%	-0.6	-4	-10%	2.2
Cc1c(NC(=O)Nc2cccs2)cccc1[N+](=O)[O-]	-5%	-0.3%	0.5	12	-25%	-3.8
O=C(CC(=O)c1c(F)cccc1Cl)c1ccccc1O	-13%	-10%	-1.6	4	-8%[15.4 µM]	-1.7
COCC(=O)N(Cc1cc2ccccc2[nH]c1=O)c1ccc(OC)cc1	5%	-22%	-0.4	19	25%	1.5
O=C(NNC(=O)c1ccccc1OCc1ccccc1)c1ccccc1O	-5%	-0.4%	4.2	13	-3%	nt
O=C(Cn1c(NCCO)nc2ccccc21)c1ccc(Cl)cc1	-3%	-1.6%	-0.7	12	-42%[inhibitor]	-2.2
COc1ccccc1C(=O)Nc1cccc(C(=O)c2ccccc2)c1	-12%	-0.9%	2.1	30	-17%	4.8
Cc1ccc(S(=O)(=O)N2CCC[C@H]2C(=O)OCCN2C(=O)c3ccccc3C2=O)cc1	-6%	-0.3%	-0.1	18	-7%	nt
O=C(O)COc1ccccc1Cc1ccccc1	-9%	2.5%	1.2	-3	?	-3.2
Cc1ccc(S(=O)(=O)N2CCCC2C(=O)Oc2ccccc2)cc1 (stereo not drawn)	-17%	0.8%	-0.9	20	15%	1.0
Cc1ccccc1N1CCN(C2CCCN(C(=O)c3ccccn3)C2)CC1 (stereo not drawn)	7%	-0.6%	0.5	3	30%	nt
